BJeLR viability – kills HRASV12-expressing BJeLR cells | BJeLR (HRASV12) viability, CellTiter-Glo ATP luminescence, 48 h; reference of the scale not given here | inhibition, % (no concentration beside the values) | 0.17% of 300,000 active | AID 1554;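 active = replicate mean above 50%; inconclusive = above 50% but judged a plate artefact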;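 note: 50 nL library stock added to about 25 µL; numbers are from one replicate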
RN4220 kill – S. aureus RN4220 growth inhibition | OD600, 16 h | inhibition, % (no concentration beside the values) | 0.33% of 330,000 active | AID 1259311;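 active = z-score of -3 or lower and OD600 up to 0.18 on both plates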;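 note: plate controls were untreated cells for no effect and reference antibiotic for full effect; stock transfer was 100 nL into about 80 µL; one replicate is shown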
ugtP null kill – compounds lethal to S. aureus RN4220 ugtP deletion mutant; OD600 growth, 16 h; some inactives read as strong as hits; growth inhibition, % (no concentration beside the values); 0.54% of 330,000 active;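 active = z-score under -3 and OD600 up to 0.15 on both plates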;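 note: plate controls were untreated wells for no effect and antibiotic for full effect; wells of about 80 µL received 100 nL stock; the first replicate is given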
Autofluor counter – counter-screen for toxin protease inhibitors: compound fluorescence; fluorescence intensity (concentration not given with the values); 3.1% of 360,000 active; AID 624483; compound autofluorescence counterscreen, microsphere flow cytometry; hits give high values;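 active = at least 3 SD above the mean of all compounds, about 16000 in these data; inconclusive = too few beads counted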;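 note: 100 nL of 1 mM stock went into each well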
PrP 5UTR inh – suppresses PrP 5' UTR mRNA reporter expression | cell-based PrP 5' UTR mRNA reporter, plate reader | inhibition, % (test concentration not listed) | 0.35% of 340,000 active | AID 488862;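 active = every replicate at 50% or more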;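 note: 0 = median of the neutral control wells; tested in H4 reporter cells; numbers are from one replicate; inactives centre near -14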
Mtb hypoxia rep – Mtb hypoxia fluorescent reporter inhibition; M. tuberculosis hypoxia-regulated fluorescent reporter, fluorescence; fluorescence inhibition, % (test concentration not listed); 0.1% of 300,000 active; AID 1159583;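 active = 35 to 45% if threefold the growth effect, above 45% if 1.5-fold the growth effect; inactive = the rest, general growth blockers included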;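 note: wells of about 50 µL received 100 nL stock; 0% = vehicle wells and 100% = reference inhibitor wells; whole bacteria with a GFP reporter of the hypoxia response; strong numbers were not always called active; many hits fall short of the cut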
Mtb hypoxia rep growth – further read-out of Mtb hypoxia rep, marked with its call; growth inhibition, %; measured here: M. tuberculosis growth (absorbance);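 0% = vehicle and 100% = reference antibiotic; read after six days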
* hit, by the source's call; ? = inconclusive; / = not tested or not shown.

Order of values – BJeLR viability	RN4220 kill	ugtP null kill	Autofluor counter	PrP 5UTR inh	Mtb hypoxia rep	Mtb hypoxia rep growth
1) CC(C)(C)OC(=O)NC(Cc1ccccc1)C(=O)NCCCC(=O)O (configuration not stated)
→ -7	5.3	6	4748	2	5	4
2) CC(=O)Nc1ccc(S(=O)(=O)Nc2nc3ccccc3nc2Nc2ccc3ccccc3c2)cc1
→ 6	39	6	10614	-26	2	2
3) CC(CCc1ccc(O)cc1)N(C)CCc1ccccc1 (configuration not stated)
→ -3	6.4	6	11629	/	12	-7
4) CC(C)CCNC(=O)c1cccc(Cl)c1
→ -3	1.3	12	3556	-29	/	/
5) COc1cccc(C(=O)O/N=C(\N)c2ccccn2)c1OC
→ 1	3.4	-1	3841	52*	10	11
6) COc1ccccc1CNC(=O)CC(C)=NNC(=O)COc1ccc(C)cc1Br
→ /	8.3	-3	/	/	-15	3
7) Cc1ccc(CNC(=O)C(=O)NCCCn2ccnc2)cc1
→ -5	6.3	-1	7776	-4	11	13
8) Cc1cc(-c2ccc(C)c(S(=O)(=O)NCCc3ccco3)c2)on1
→ 0	0.5	0	5655	-14	0	8
9) c1cc2c(cc1C1CCCCC1)c1c3n2CCN=C3CCC1
→ -1	2.1	10	6266	-1	/	/
10) COc1ccc(-c2csc(N(CCc3ccccc3)C(=O)COc3ccccc3)n2)cc1
→ -7	-2.4	0	?	-23	1	7
11) COc1ccccc1CN1CC(C(=O)NCCn2ccc(C)n2)CCC1=O (configuration not stated)
→ 3	2.5	7	5552	-7	5	0
12) CCN(CC)CCN(C)C1CCC(c2ccccc2)CC1 (configuration not stated)
→ /	3.4	12	2480	-13	8	-3
13) Cc1cccc(Cc2c(C)nc3nc(SCC(=O)O)nn3c2C)c1
→ -7	1.3	0	3354	2	1	-1
14) Cc1ccccc1CNC(=O)CC1C(=O)NCCN1Cc1c(F)cccc1Cl (configuration not stated)
→ 0	7.2	1	2246	-17	8	0
15) CCOC(=O)N1CCN(C(=O)CC(C(=O)N2CCc3ccccc32)n2ccnc2)CC1 (configuration not stated)
→ 6	6.7	13	16026	-6	10	4
16) O=c1c2ccccc2nc(/C=C/c2ccc(O)cc2)n1CCc1ccccc1
→ 1	/	/	9539	-8	/	/
17) Cc1c(-c2ccc(F)cc2)[n+](=O)c(-c2ccc(F)cc2)c(C)n1[O-]
→ -10	1.9	5	8220	-17	7	8
18) Cc1ccc(-c2csc3ncnc(NCCN4CCOCC4)c23)cc1
→ 3	5.7	-3	3647	4	3	4
19) CC(=O)Nc1nc2cc(C(N)=O)ccc2s1
→ /	-1.7	-12	3655	-14	3	7
20) COc1cc(/C=C2/NC(=O)N(c3cccc(Cl)c3)C2=O)ccc1O
→ -7	6.6	-14	1936	-8	7	6
21) COc1cccc(OCC(=O)NNC(=O)Cc2cccs2)c1
→ 9	-2.2	0	2579	-18	-1	6
22) O=[N+]([O-])c1cccnc1N1CCN(c2ccccc2F)CC1
→ 0	4.2	10	3267	-11	18	8
23) CCCC(=O)Nc1cc(C)c(NC(=O)C23CC4CC(CC(C4)C2)C3)cn1
→ 4	10	4	4745	-11	/	/
24) O=C1OCCC1Sc1nnc(-c2ccc(O)cc2)o1 (configuration not stated)
→ 4	1.2	0	2740	-14	1	4
25) O=C(NC1=NCCS1)c1ccncc1
→ 4	0.8	-8	2647	-22	/	/
26) O=C(Nc1nccs1)c1ccc(F)c(S(=O)(=O)N2CCOCC2)c1
→ -2	4.5	1	5588	-17	2	4
27) CCc1ccc(NC(=O)C(=O)N/N=C(\C)CC(=O)NCc2ccc(Cl)cc2)cc1
→ 4	/	/	4144	-19	/	/
28) CC(C)(C)NC(=O)COC(=O)CNC(=O)c1cc(Cl)cc([N+](=O)[O-])c1
→ -3	1.1	5	2667	-7	8	5
29) O=C(NC(=S)N1CCN(c2ccc([N+](=O)[O-])cc2)CC1)c1ccccc1
→ 5	4.5	0	4110	-13	8	7
30) Cc1nn(CC(=O)NCc2cccc3ccccc23)c(=O)c2ccccc12
→ -3	3.5	5	7172	-22	9	-2
31) COc1cccc(N2CCN(c3nc(C)cc(C)c3C#N)CC2)c1
→ -10	13	6	3116	-6	19	4
32) CCn1cc(CCC(=O)O)c(C)n1
→ -3	3.1	6	3397	4	0	2
33) O=C(NCCCn1ccnc1)c1ccccc1Br
→ -2	5.1	0	3273	-13	-3	-3
34) CCc1cccc(OCCCN2C(=O)NC(C)(C)C2=O)c1
→ 4	2.0	-2	22570*	-9	5	14
35) COc1ccc(-c2cc3ccc(OC(C)C(=O)O)cc3oc2=O)cc1 (configuration not stated)
→ 3	3.6	2	3944	8	-2	1
36) Cc1cc(C(=O)N/N=C/C=C/c2ccccc2)c(C)o1
→ 4	/	/	2540	-17	/	/
37) Cc1cc(N2CCN(C)CC2)nc2ccc(NC(=S)N3CCCCC3)cc12
→ -9	6.0	6	4666	-39	12	9
38) CCc1nnc(NC(=O)Cc2ccc(S(=O)(=O)N3CCCCC3)cc2)s1
→ /	-0.8	1	6540	-20	2	4
39) COc1ccc(C(=O)CC(Nc2ccc([N+](=O)[O-])cc2)c2ccc(Cl)cc2)cc1 (configuration not stated)
→ 18	-2.0	-5	8564	-41	12	5
40) Cn1cccc1C=NNC(=O)CNc1ccc2ccccc2c1
→ /	-4.1	-6	/	/	-16	6
41) CCCC(=O)Nc1sc(-c2ccccc2)c(-c2ccccc2)c1C(=O)O
→ -6	74	42	3500	-6	-4	-3
42) FC(F)(F)c1ccc2c(c1)ncn2C1CCN(Cc2nnnn2C2CCCCC2)CC1
→ -5	2.1	-2	9076	-19	4	8
43) CCN(c1ccccc1)S(=O)(=O)c1cc(C(=O)Nc2ccccc2Cl)ccc1F
→ 12	2.7	0	1929	-14	13	3
44) Cc1cccc2cc3c(NC(=O)C(C)(C)C)nn(CC(C)C)c3nc12
→ -1	-6.4	29	3881	-27	-1	11
45) CC12CCC3c4cc(CN5CCOCC5)c(O)cc4CCC3C1CCC2=O (configuration not stated)
→ /	1.9	2	3968	-13	4	5
46) O=C1NCCCC1C(=O)NCCNC(=O)C(F)(F)F (configuration not stated)
→ -14	0.7	4	8955	-14	7	-5
47) O=C(c1cccs1)n1nc(-c2ccc(Cl)cc2)nc1NCc1ccco1
→ 5	-4.4	-4	6121	-31	-1	8
48) O=C(CN1CCCCCC1)Nc1ccccc1
→ -4	6.3	7	4363	-32	21	3
49) O=C1CN(S(=O)(=O)c2cc(C(=O)O)ccc2Cl)c2ccccc2N1
→ -6	1.3	6	3933	-16	-3	-1
50) OCCC1CN(C/C=C/c2ccco2)CCN1Cc1ccccc1 (configuration not stated)
→ -12	2.5	15	3744	-20	15	13
51) NNC1=N[C@H]2CS(=O)(=O)C[C@H]2S1
→ -1	2.5	1	2472	8	15	4
52) COc1ccc(N2C(=O)c3cccc4c(N(C)CCO)ccc(c34)C2=O)cc1
→ 7	3.3	3	4739	-13	2	-3
53) CCCCc1cc(=O)oc2cc(OCc3nn[nH]n3)ccc12
→ -4	9.2	1	4071	-13	-12	2
54) CCCOc1ccc(C(=O)NC(=S)Nc2nc3ccccc3s2)cc1
→ -2	3.1	-12	7723	-41	16	5
55) Cn1c(=O)c2c(nc(N3CCCCCC3)n2CC(=O)c2ccc(Br)cc2)n(C)c1=O
→ -9	-0.1	-5	4197	1	/	/
56) O=C(CSc1ccc(-c2ccc3c(c2)OCO3)nn1)Nc1nccs1
→ -13	3.6	7	3913	-19	13	8
57) c1c(CC2CCCC2)nnn1CC1CCC(C2CCC(Cn3cc(CC4CCCC4)nn3)O2)O1 (configuration not stated)
→ /	3.6	4	/	/	9	5
58) CCN(CC)C(=O)COc1ccc(N(C)S(=O)(=O)c2ccc(NC(C)=O)cc2)cc1
→ -16	3.8	-6	4298	-9	0	0
59) COc1ccccc1OCC(=O)N/N=C1/C=C(C)CC1
→ -3	/	/	5151	-44	/	/
60) Cc1ccc[n+](-c2[nH]c(=O)sc2/C=N/N=C(\[O-])CCn2c3ccccc3c3ccccc32)c1
→ -2	/	/	4027	-12	/	/

New compounds follow.
Order of values – BJeLR viability	RN4220 kill	ugtP null kill	Autofluor counter	PrP 5UTR inh	Mtb hypoxia rep	Mtb hypoxia rep growth
61) O=C(COc1ccccc1)Nc1c2c(nn1-c1ccc(F)cc1)CS(=O)(=O)C2
→ 6	0.8	3	5175	-7	4	9
62) CN(C)C(=O)CCc1ccc2c3c([nH]c2c1)[C@]1(CCc2ccccc2)[C@@H](C(=O)N2CCCCC2)C[C@H](CC(=O)NCCC2=CCCCC2)C(=O)N1CC3
→ /	1.3	2	3651	-26	-5	2
63) Cc1ccc(S(=O)(=O)/N=C(\c2ccccc2)N(C)S(=O)(=O)c2ccccc2)cc1
→ -8	/	/	1999	-11	/	/
64) COc1ccc(CN2CCN(C(=O)c3ccccc3F)CC2)c(OC)c1OC
→ 3	3.2	4	5736	13	2	8
65) O=C(O)c1ccc(CS(=O)c2cccc(C(F)(F)F)c2)o1 (configuration not stated)
→ 3	3.6	6	8068	6	5	5
66) CN(C(=O)c1ccc(NC(=O)Cc2cccc(NC(=O)C3CCCN(C(=O)C4CCC4)C3)c2)cc1)C1CCCC1 (configuration not stated)
→ /	6.8	3	3701	-15	7	6

Screening data as filed in PubChem.
